# HNF4A DNA FP: change in binding of human HNF4A to DNA, primary screen, biochemical, fluorescence polarization, FITC-DNA; activity change, % at 10 µM; 0.3% of 360,000 active; AID 1224865, 2016; 1 h; in the data active = activity change above about 30%, passing the limit was not always enough;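 also: controls were the assay level and a saturating level of protein; the project sought stronger binding though the title names inhibitors; some compounds called inactive have numbers as strong as hits; positive values seem to mean higher polarization but the record does not say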
# FGF22 binding: binders of human FGF22 protein, primary screen, FGF22 synaptogenesis inhibitor project, biophysical, thermal shift, single point. recombinant FGF22 thermal shift, SYPRO orange fluorescence; percent of sucrose octasulfate shift, DMSO zero. calls only at 9.99 µM. 1.5% of 340,000 active. AID 651658, 2012;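 active = melting point raised past a set limit in the mean and every replicate; inconclusive = no clear call; three in four hits are not shown here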
# Beta2AR agonist: beta2AR agonists driving receptor internalization, primary screen, cell-based, FAP fluorogen, flow cytometry; 0.43% of 340,000 active; response, % (test concentration not listed); Am2.2-beta2AR cells; reference of the scale not given here; Beta-2 adrenergic receptor (Homo sapiens), P07550;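 active = response above a set limit, near 3 SD of response in nonfluorescent compounds, cut at about 42% in these data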;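 also: stock transfer was 100 nL into about 11 µL; a reference agonist was the positive control; negative values mostly stem from fluorescent compounds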
# Target sequence (P07550 whole entry, looked up): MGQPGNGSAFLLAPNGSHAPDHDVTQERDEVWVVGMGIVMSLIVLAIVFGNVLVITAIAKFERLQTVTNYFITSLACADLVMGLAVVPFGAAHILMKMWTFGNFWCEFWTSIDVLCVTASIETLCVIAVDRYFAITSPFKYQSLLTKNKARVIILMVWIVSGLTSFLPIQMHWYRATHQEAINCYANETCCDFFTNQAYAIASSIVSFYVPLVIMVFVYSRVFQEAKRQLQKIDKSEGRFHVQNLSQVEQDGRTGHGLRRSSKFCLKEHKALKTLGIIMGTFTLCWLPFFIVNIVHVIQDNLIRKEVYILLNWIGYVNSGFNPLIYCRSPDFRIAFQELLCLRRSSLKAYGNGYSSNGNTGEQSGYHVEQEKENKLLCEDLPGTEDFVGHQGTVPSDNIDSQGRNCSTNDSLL
# ALR H2O2 inh: inhibitors of human ALR sulfhydryl oxidase, primary screen, biochemical, H2O2 detection, HRP-luminol luminescence, single point; purified ALR, DTT oxidation; FAD-linked sulfhydryl oxidase ALR (Homo sapiens), P55789; 3.8% of 290,000 active; inhibition, % (concentration not given with the values); AID 485317, 2010;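 active = mean and each replicate at 75% or more; inconclusive = only one of the two met; inactive = neither met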;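 also: stock transfer was 7.5 nL into about 7.5 µL; 0% = neutral wells and 100% = wells with inactivated enzyme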
# Target sequence (P55789 whole entry, looked up): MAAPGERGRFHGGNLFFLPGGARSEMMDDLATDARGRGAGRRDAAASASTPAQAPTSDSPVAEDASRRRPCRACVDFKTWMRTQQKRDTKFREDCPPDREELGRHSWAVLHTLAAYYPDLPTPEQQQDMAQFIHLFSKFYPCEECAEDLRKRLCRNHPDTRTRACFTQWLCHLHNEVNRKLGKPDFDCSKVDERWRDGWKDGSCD
# Ecoli rRNA inh: reduced GFP signal of wild-type E. coli, primary screen, bacterial rRNA inhibitor project, GFP/RFP fluorescence, OD600, single point; E. coli WT GFP vs humanized-ribosome RFP mutants, 24 h; active compounds read low; DMSO median 0, no signal -100; GFP signal change (wild-type ribosome), % (test concentration not listed); 1.6% of 350,000 active;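 active = significant combined selectivity score with lowered wild-type GFP, culture density cut under 30%, mutant RFP and density less affected; inactive = any of these conditions unmet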; also: one replicate is shown; some compounds called inactive have numbers as strong as hits
# UCH37 DUB inh: inhibitors of human UCH37 deubiquitinase, primary screen, biochemical, Ub-AMC cleavage, fluorescence | Ubiquitin carboxyl-terminal hydrolase isozyme L5 (Homo sapiens), Q9Y5K5 | purified proteasome/UCH37 | inhibition, % (no concentration beside the values) | 0.33% of 330,000 active | AID 588478, 2011;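 active = mean of two replicates above 20%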;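 also: 0% = compound-free wells with enzyme and 100% = wells lacking proteasome; stock transfer was 100 nL into about 20 µL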
# Target sequence (Q9Y5K5 whole entry, looked up): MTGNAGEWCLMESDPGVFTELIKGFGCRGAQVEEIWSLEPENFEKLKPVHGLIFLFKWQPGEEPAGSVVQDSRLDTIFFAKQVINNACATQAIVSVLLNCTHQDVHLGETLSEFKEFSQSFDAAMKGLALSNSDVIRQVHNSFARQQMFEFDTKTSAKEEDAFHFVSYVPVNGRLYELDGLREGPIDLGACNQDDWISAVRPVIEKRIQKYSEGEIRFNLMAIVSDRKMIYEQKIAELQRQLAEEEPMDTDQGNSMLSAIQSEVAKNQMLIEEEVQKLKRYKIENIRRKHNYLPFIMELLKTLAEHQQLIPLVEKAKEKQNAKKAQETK
#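 Material: Human UCH37 enzyme supplied as purified proteasome complex | Schedule: 30 min preincubation with enzyme, 25 min cleavage at room temperature | Detection: AMC fluorescence 355/460 nm | Measure: % inhibition of Ub-AMC cleavage fluorescence | Controls: Wells without proteasome as full block, compound-free enzyme plus substrate as uninhibited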
# E coli growth: E. coli growth inhibition, primary screen, OD600; OD600 absorbance (concentration not given with the values); Escherichia coli growth, 23 h; active compounds read low; 0.21% of 330,000 active;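 active = OD600 absorbance below the run mean of sample wells minus 3.6 SD, in any replicate, cut at about 0.56 in these data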;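 also: stock transfer was 300 nL into about 60 µL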
# Ecoli rRNA inh OD600: also measured in Ecoli rRNA inh; calls as there; OD600 change, %; measured here: OD600 growth;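 optical density of the mix in the first replicate; 0 = DMSO median and -100 = no signal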
# Ecoli rRNA inh RFP: further read-out of Ecoli rRNA inh, marked with its call; RFP signal change, %; measured here: RFP humanized mutant strains;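 first replicate; 0 = DMSO median and -100 = no signal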
# * marks the source's active call; other numbers are inactive results; i = inactive; ? = inconclusive; · = no result given; & = joins results of further samples. Not all compounds are listed; count on the stated rates, not on these rows.
mol	HNF4A DNA FP	FGF22 binding	Beta2AR agonist	ALR H2O2 inh	Ecoli rRNA inh	Ecoli rRNA inh OD600	Ecoli rRNA inh RFP	UCH37 DUB inh	E coli growth
O=C(Nn1cnnc1)c1ccccc1Cl	0.7	i	-4	·	10	13	-1.9	2.5	0.69
O=C(c1cc(F)c(F)cc1Cl)N1CCN(c2ncccn2)CC1	-3.8	i	-3	-12	10	-2	-0.7	-3.5	0.67
CN1C(=O)/C(=C2\SC(N3CCCCCC3)=NC2=O)c2ccccc21	4.0	·	-18	-2	-8	-8	-4.6	6.5	0.69
O=C(NC1CS(=O)(=O)CC1NCc1ccco1)c1ccccc1 (stereo unspecified)	0.6	·	-4	-5	·	·	·	3.9	0.74
CCn1c(C)nc2cc(C(=O)NNC(=O)CCC3CCCC3)ccc21	0.0	i	-2	5	-27	-42	-14	2.8	0.69
COc1ccc(-n2nc(C(=O)N(C)C3CCCCC3)c3ccccc3c2=O)c(OC)c1	-2.6	i	0	-6	5	13	3.4	1.2	0.69
Cc1ccc(C2(C)NC(=O)N(CC(=O)Nc3cc(S(=O)(=O)N(C)C)ccc3C)C2=O)cc1 (stereo unspecified)	-0.5	i	-2	·	3	3	2.6	1.9	0.64
CCOc1ccc(N(C)Cc2cc(=O)oc3ccc(OC)cc23)cc1	-3.1	i	5	10	-16	-15	-1.4	-0.7	0.71
O=C(NCC1CCCN(Cc2nccs2)C1)c1cccc2ccccc12 (stereo unspecified)	-1.1	i	1	-9	6	5	-2.0	4.3	0.71
COc1ccc(C(=O)Nc2ncc3c(n2)CC(C)CC3=O)cc1 (stereo unspecified)	1.5	i	4	-3	7	-2	-0.1	5.3	0.68
O=C(N/N=C/c1cccc(Oc2ccccc2)c1)c1ccc(O)cc1O	-1.9	i	-11	47	-13	-16	0.7	·	·
CCOc1ccc(CCNC(=O)COC(=O)C2=NNC(=O)CC2)cc1OCC	-1.6	i	0	-4	9	11	-2.0	0.2	0.61
CC(C)(C)OC(=O)N1CCC(c2c(C(=O)N3CCN(C(=O)c4ccco4)CC3)cnn2-c2ccc(F)cc2)CC1	-1.8	i	-8	-1	12	10	-1.5	0.7	0.62
O=C(NNC(=O)c1ccc(Cl)c(Cl)c1)c1ccncc1	-2.1	i	9	16	4	11	-1.1	-0.4	0.65
CC(CCc1ccccc1)NC(=O)C1CCN(S(=O)(=O)N2CCOCC2)CC1 (stereo unspecified)	-3.1	·	-1	-5	·	·	·	-16	0.71
CCOC(=O)C1=C(C)N(C)C(C)=C(C(=O)OCC)C1c1ccccc1	-1.3	·	6	-1	·	·	·	-121	0.64
Cc1cc(SCC(=O)N/N=C/c2ccc(O)c(O)c2O)c(C)cc1Br	-1.7	·	-2	95*	·	·	·	·	·
CCN(CC)S(=O)(=O)c1ccc(NC(=O)COC(=O)c2ccc(NC(=O)CC#N)cc2)cc1	1.4	i	-9	99*	-13	-12	4.7	3.3	0.68
CSc1nnc(-c2cc[n+](C)cc2)n1CCO	1.5	i	3	-19	0	1	-3.8	3.8	0.7
CCOC(=O)/C(C#N)=C/c1cc(C)n(-c2ccc(Br)cc2)c1C	·	·	·	-3	·	·	·	-17	0.69
Cc1ccc(NC(=O)C(NCc2ccccn2)c2ccccc2)cc1 (stereo unspecified)	-7.7	i	-5	1	12	3	-0.9	1.8	0.68
COc1ccc(S(=O)(=O)N2CCCCC2)cc1NC(=O)c1ccc(OC)c(OC)c1	1.6	i	1	·	6	10	1.7	4.8	0.65
CCOc1ccccc1NC(=O)CN1CCC(C(=O)c2ccc(F)cc2)CC1	-4.1	i	-6	1	-15	-57	-6.5	5.8	0.67
O=C(NNC(=O)c1ccccc1O)c1ccc(-c2ccc([N+](=O)[O-])cc2)o1	0.6	·	-3	24	-25*	-18*	2.0*	5.7	0.66
COC(=O)CSc1nc(N)nc(C)c1Cl	0.2	·	3	2	10	4	-3.1	2.6	0.69
COC(C[C@@H](O)C[C@@H](O)[C@@H](C)OCc1ccccc1)OC	-1.4	i	0	-18	10	4	16	-4.2	·
CC(C)c1ccc(NC(=O)CCNC(=O)Cn2cnc3ccccc3c2=O)cc1	4.4	i	-2	-6	12	16	2.0	4.3	0.69
COc1ccc(C(=O)NNC(=O)CSc2nnc(COc3ccccc3)n2C)cc1	-2.2	·	-2	-4	·	·	·	1.2	0.62
S=C(Nc1cccnc1)NC1CC2CCC1C2 (stereo unspecified)	-0.2	i	-4	4	6	2	0.6	-5.7	0.65
CCOc1ccccc1NC(=O)COC(=O)/C=C/c1cccs1	2.8	i	-2	1	-6	-37	-7.4	1.5	0.72

# Ordered by value in Beta2AR agonist (falling): 3 of the compounds above.
SMILES	Beta2AR agonist
CCOc1ccc(CCNC(=O)COC(=O)C2=NNC(=O)CC2)cc1OCC	0
CC(CCc1ccccc1)NC(=O)C1CCN(S(=O)(=O)N2CCOCC2)CC1 (stereo unspecified)	-1
COc1ccc(C(=O)NNC(=O)CSc2nnc(COc3ccccc3)n2C)cc1	-2

# The listing continues.
mol	HNF4A DNA FP	FGF22 binding	Beta2AR agonist	ALR H2O2 inh	Ecoli rRNA inh	Ecoli rRNA inh OD600	Ecoli rRNA inh RFP	UCH37 DUB inh	E coli growth
COc1cccc2cc(-c3nnc(SCC(=O)Nc4ccc(NC(C)=O)cc4)n3C)oc12	2.1	i	9	-1	4	8	-2.1	-0.2	0.7
CC(=O)c1sc(N)nc1C	0.5&2.2	i	-2	·	19&7	3&11	3.6&-8.2	1.7	0.68
O=C(CCn1nnc2ccccc21)OCC(=O)c1ccc(F)cc1	0.2	i	-18	-2	-1	8	-4.5	4.9	0.66
CCCn1c(SCC(=O)Nc2ccccc2N2CCOCC2)nc2c1c(=O)n(C)c(=O)n2C	2.5	·	0	-3	·	·	·	5.4	0.7
COc1ncnc2c1ncn2CCCNCCCN1CCCC1=O	4.7	i	·	·	8	4	0.9	·	·
CCCC(=O)Nc1c2c(nn1-c1ccc(OC)cc1)CS(=O)(=O)C2	-2.8	·	0	-3	·	·	·	1.4	0.69
Cc1ccc(-n2nc3c(=O)n(CC(=O)c4ccc(F)cc4)nc(C)c3c2C)cc1	-0.1	·	15	-1	·	·	·	1.5	0.69
O=C(CSCc1ccc(F)cc1)Nc1nc2c(s1)CCCC2	1.0	·	2	?	·	·	·	4.1	0.72
COc1cc(C(=O)Nc2cccnc2)cc(OC)c1OC	1.1	i	1	·	10	13	0.3	1.7	0.64
CC(C)N=C(NC#N)SCc1ccccc1	4.7	·	-5	1	·	·	·	1.6	0.68
C[C@H](CO)N1C[C@H](C)[C@H](CN(C)C(=O)CC2CC2)Oc2cc(Br)ccc2S1(=O)=O	-0.1	i	·	·	8&-5	4&-12	1.0&-0.8	·	·
COc1ccc(OC)c(S(=O)(=O)N2CCC3(CC2)CC(=O)c2ccccc2O3)c1	0.0	i	-1	1	-16	-23	5.3	-8.8	0.7
COc1ccc(S(=O)(=O)N2CCOCC2)cc1NC(=O)C1CCCCN1S(=O)(=O)c1ccccc1 (stereo unspecified)	-3.3	i	10	·	-3	-2	1.3	-1.0	0.72
CCn1c(SCc2ccccc2)nnc1C1CCN(S(=O)(=O)c2ccc(OC)cc2)CC1	-2.4	·	2	-8	·	·	·	0.5	0.66
COc1ccc(CCNC(=O)Cc2cc(OC)c(OC)cc2Br)cc1OC	-4.1	i	7	3	7	0	-4.9	0.4	0.65
Cc1ccc(Nc2nnc(SCC(=O)Nc3cccc(S(=O)(=O)NC4=NCCCCC4)c3)s2)c(C)c1	2.9	·	5	·	·	·	·	-0.5	·
COc1ccc(C(=O)/C=C/c2ccc(OC)c(CN3CCOCC3)c2)cc1	1.9	·	-2	10	·	·	·	·	·
C=CCNC(=O)c1c(CSc2ccc(Cl)cc2)noc1C(=O)NCc1ccccc1	7.3	i	-8	-11	6	-8	3.1	3.1	0.73
COC(=O)c1c(N2C(=O)[C@H]3[C@@H](C2=O)[C@]2(C(=O)Nc4c2ccc(C)c4C)N2CCC[C@@H]32)sc(C)c1C	15	i	-17	0	-1	14	11	4.8	0.66
CC(C)(C)OC(=O)C[C@@H]1C/C=C\C[C@@H](CC(=O)N(CCO)Cc2ccccc2)C(=O)NC[C@@H](c2ccccc2)OC1=O	1.2	i	4	-10	2	-1	-9.6	0.0	·
NC(=O)CC(NC(=O)c1cccc(Br)c1)c1ccc(NC2CCCCCCCCCCC2)c([N+](=O)[O-])c1 (stereo unspecified)	-1.5	i	-1	13	1	-3	-11	-1.3	0.68
CCOc1ccc(-c2nnn(CCC(=O)O)n2)cc1OC	0.4	·	-8	-7	·	·	·	1.6	0.7
CN(C(=O)CSc1nc(-c2ccc(F)cc2)cs1)C1CCS(=O)(=O)C1 (stereo unspecified)	1.2	·	2	-2	·	·	·	1.4	0.66
Cc1ccc(Nc2nc3c(s2)CCC3)c(C)c1	11	·	2	·	·	·	·	3.1	0.68
CCCc1ccc(S(=O)(=O)NCc2nnc(SC)n2C)cc1	2.0	i	0	-30	1	-1	-2.5	-1.0	0.68
COc1ccc(C(=O)NN2C(=O)C3CCC(C)(C2=O)C3(C)C)cc1 (stereo unspecified)	0.5	·	10	-9	·	·	·	-0.4	0.71
Cc1ccc(C(=O)N2CCC(N3CCC(C(=O)N4CCOCC4)CC3)CC2)cc1	3.7	i	·	·	5	10	-1.0	·	·
Cc1ccc2[nH]c(=O)c(CN(CCO)Cc3nnnn3CCc3ccccc3)cc2c1	-0.9	·	-10	-18	·	·	·	-9.0	0.78
Cc1cc(C)c2c(-n3cccc3)nn(C)c2n1	-0.9	·	-5	3	·	·	·	-1.0	0.75
COc1cc(-c2coc3c(C(=O)Nc4ccc(C(C)C)cc4)cccc23)ccc1O	4.1	i	·	·	1	1	-1.6	·	·
COc1ccccc1CNC(=O)CCN1C(=O)c2ccccc2C1=O	-0.8	i	-4	-4	5	11	-6.1	-0.7	0.71
Nc1ccn([C@@H]2O[C@H](C(=O)N[C@H]3c4ccccc4C[C@H]3O)[C@@H](O)[C@H]2O)c(=O)n1	-3.7	i	·	·	13	8	0.1	·	·
Cc1csc(SCc2ccccc2C(=O)O)n1	-1.7	·	0	-9	·	·	·	4.7	0.69
O=C1Nc2ccccc2C(O)(C(=O)NC2CC2)N1c1ccc(Cl)c(Cl)c1 (stereo unspecified)	-1.7	·	2	-6	·	·	·	-1.4	0.69
CCCNC(=O)Nc1cccc(C(=O)OC)c1	8.6	i	4	0	3	-12	-3.7	2.7	0.63
COc1ccc(-c2c(C#N)c(SCC(N)=O)nc3c2CCCC3)cc1	2.9	·	1	-8	-6	4	-0.7	-2.8	0.69
COc1cccc(CC(NC(C)=O)C(=O)NC2CCN(S(=O)(=O)c3ccc(F)cc3)CC2)c1OC (stereo unspecified)	4.4	·	9	-2	11	8	-1.2	4.0	0.66
COc1ccccc1C(CNC(=O)c1ccc(NS(=O)(=O)c2ccc(F)c(C)c2)cc1)N1CCCC1 (stereo unspecified)	-6.4	i	16	-10	0	-3	5.0	1.2	0.65

# Compound activity: PubChem, several laboratories
